Screening results deposited in PubChem BioAssay by Johns Hopkins Ion Channel Center.
KCNQ2 enhance: KCNQ2 (rat) channel potentiation; O88943; CHO-K1 KCNQ2, FluxOR thallium flux fluorescence; stronger effect = higher value; B-score at 10 µM; hit rate 0.54% among 310,000; AID 2239;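 active = fluorescence ratio B-score at least 3 SD of library B-scores, with initial fluorescence B-score within 3 SD, cut at about 5.3 in these data; same plate scores as AID 2156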;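 also: B-score of peak minus minimum over baseline fluorescence ratio after K+ and Tl+ stimulus; positive B-score means potentiation of KCNQ2 with more thallium influx and brighter signal; only the inactives scoring about 0 or higher are listed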
Target sequence (O88943 whole entry, looked up): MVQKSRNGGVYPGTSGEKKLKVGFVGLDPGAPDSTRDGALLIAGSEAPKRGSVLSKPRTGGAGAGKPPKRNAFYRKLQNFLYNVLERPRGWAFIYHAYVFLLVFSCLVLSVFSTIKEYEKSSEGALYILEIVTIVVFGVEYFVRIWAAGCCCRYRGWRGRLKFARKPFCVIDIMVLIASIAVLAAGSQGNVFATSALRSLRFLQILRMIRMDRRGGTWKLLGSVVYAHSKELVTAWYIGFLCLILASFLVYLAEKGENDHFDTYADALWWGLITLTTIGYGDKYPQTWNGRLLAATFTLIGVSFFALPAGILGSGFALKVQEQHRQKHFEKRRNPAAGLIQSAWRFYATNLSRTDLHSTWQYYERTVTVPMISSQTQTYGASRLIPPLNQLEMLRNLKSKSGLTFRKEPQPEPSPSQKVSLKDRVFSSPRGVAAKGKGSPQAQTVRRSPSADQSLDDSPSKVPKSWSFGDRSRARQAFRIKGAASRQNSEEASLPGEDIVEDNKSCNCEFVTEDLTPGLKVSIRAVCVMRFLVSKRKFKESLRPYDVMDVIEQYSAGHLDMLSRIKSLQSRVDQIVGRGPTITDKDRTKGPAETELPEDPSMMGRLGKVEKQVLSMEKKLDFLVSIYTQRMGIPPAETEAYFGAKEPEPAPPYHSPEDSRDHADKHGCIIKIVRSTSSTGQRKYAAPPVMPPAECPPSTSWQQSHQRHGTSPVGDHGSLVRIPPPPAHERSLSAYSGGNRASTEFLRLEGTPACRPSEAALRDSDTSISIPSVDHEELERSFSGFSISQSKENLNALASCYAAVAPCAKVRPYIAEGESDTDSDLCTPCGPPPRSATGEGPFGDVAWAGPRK
KCNQ2 enhance baseline: also measured in KCNQ2 enhance; calls as there; B-score; compound at 10 µM; measured here: initial fluorescence intensity artifact check;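 brightness before thallium and not channel activity; 0 = typical well and far values either way flag optical interference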
An asterisk follows results filed as active. Not all compounds are listed (hit frequency here may not be typical).

SMILES	KCNQ2 enhance	KCNQ2 enhance baseline
CSc1nc(NCc2ccco2)c2c3c(sc2n1)CN(C)CC3	0.09	0.19
CCOc1ccc(S(=O)(=O)Nc2nc3ccc(OC)cc3s2)cc1	1.11	-0.68
O=c1[nH]c(-c2ccccn2)cc2ccccc12	1.12	-0.3
CCC(C)NC(=O)Cn1cnc([N+](=O)[O-])c1 (stereo unspecified)	0.1	0.36
COC(=O)COc1ccc(C(=O)Cn2c(NCCCO)nc3ccccc32)cc1	0.45	-0.25
CS(=O)(=O)c1ccc(-c2nnn(CC(=O)N3CCCCC3)n2)cc1	0.89	0.14
CC(=O)/C(C#N)=C1\NC(=O)C(Cc2ccccc2)S1 (stereo unspecified)	0.14	-2.16
Cc1nc2c(C)cccn2c1C(=O)N/N=C/c1ccccc1[N+](=O)[O-]	0.07	0.84
O=C(CNc1ccccc1)N/N=C/c1ccc([N+](=O)[O-])o1	2.71	-1.64
CC(C)Oc1ccccc1/C=N/NC(=O)C1CC1	0.88	-0.01
COc1cc(C)c(CN2CCC(n3nccc3NC(=O)C3CC3)CC2)cc1C	0.7	-1.26
CCN(CC)CCNC(=O)c1ccc(NC(=O)c2ccc(C(=O)c3ccccc3)cc2)cc1	1.23	-0.67
CC(C)CCNc1nc(N)c([N+](=O)[O-])c(NC2CCCCC2)n1	0.06	1.44
Cc1ccc(C2CC(c3cccs3)=NN2C(=O)CSC2=NCCS2)cc1 (stereo unspecified)	0.01	0.2
Cc1cc(=O)oc(C)c1C(=O)Nc1ccc(Cl)cn1	1.24	-1.16

15 neighbouring compounds out of the list so far, quoted:
SMILES	KCNQ2 enhance	KCNQ2 enhance baseline
CSc1nc(NCc2ccco2)c2c3c(sc2n1)CN(C)CC3	0.09	0.19
CCOc1ccc(S(=O)(=O)Nc2nc3ccc(OC)cc3s2)cc1	1.11	-0.68
O=c1[nH]c(-c2ccccn2)cc2ccccc12	1.12	-0.3
CCC(C)NC(=O)Cn1cnc([N+](=O)[O-])c1 (stereo unspecified)	0.1	0.36
COC(=O)COc1ccc(C(=O)Cn2c(NCCCO)nc3ccccc32)cc1	0.45	-0.25
CS(=O)(=O)c1ccc(-c2nnn(CC(=O)N3CCCCC3)n2)cc1	0.89	0.14
CC(=O)/C(C#N)=C1\NC(=O)C(Cc2ccccc2)S1 (stereo unspecified)	0.14	-2.16
Cc1nc2c(C)cccn2c1C(=O)N/N=C/c1ccccc1[N+](=O)[O-]	0.07	0.84
O=C(CNc1ccccc1)N/N=C/c1ccc([N+](=O)[O-])o1	2.71	-1.64
CC(C)Oc1ccccc1/C=N/NC(=O)C1CC1	0.88	-0.01
COc1cc(C)c(CN2CCC(n3nccc3NC(=O)C3CC3)CC2)cc1C	0.7	-1.26
CCN(CC)CCNC(=O)c1ccc(NC(=O)c2ccc(C(=O)c3ccccc3)cc2)cc1	1.23	-0.67
CC(C)CCNc1nc(N)c([N+](=O)[O-])c(NC2CCCCC2)n1	0.06	1.44
Cc1ccc(C2CC(c3cccs3)=NN2C(=O)CSC2=NCCS2)cc1 (stereo unspecified)	0.01	0.2
Cc1cc(=O)oc(C)c1C(=O)Nc1ccc(Cl)cn1	1.24	-1.16

Additional results:
SMILES	KCNQ2 enhance	KCNQ2 enhance baseline
COc1cc2cc(CN(CCO)C(=O)c3cccs3)c(=O)[nH]c2cc1OC	0.65	1.31
COC(=O)C1OC2(OC1C(=O)OC)c1ccccc1-c1ccccc12 (stereo unspecified)	1.15	0.01
CCn1ncc(CNC(=O)C2(C)CC2(Cl)Cl)c1C (stereo unspecified)	0.01	0.1
Nc1nonc1C(=O)NCCNC(=O)c1cccc(Cl)c1	0.64	0.06
COC(=O)c1ccc(NC(=O)Cn2nnc(-c3cccs3)n2)cc1	0.07	0.22
O=C(O)c1cccc(NC(=O)c2ccc(N3C(=O)c4ccc(C(=O)Nc5cccc(C(=O)O)c5)cc4C3=O)cc2)c1	0.7	-0.64
CC(C)(O)[C@H](O)COc1c2ccoc2cc2oc(=O)ccc12	0.93	1.26
O=C(c1ccc(S(=O)(=O)N2CCCCC2)cc1)c1nnc(-c2ccc(Cl)cc2)o1	0.13	0.13
Cc1c(-n2c(=O)n(Cc3ccccc3)c(=O)c3[nH]cnc32)cccc1S(C)=O (stereo unspecified)	0.96	-0.69
Cc1ccccc1NS(=O)(=O)c1ccc(C(=O)N2CCCC(C(F)(F)F)C2)cc1 (stereo unspecified)	1.58	-0.82
CC(C)=Cc1c(O)nc2ccccn2c1=O	1.06	0.04
S=C(Nc1ccccc1Cl)NC1CC2CCCC(C1)N2C1CC1 (stereo unspecified)	0.8	-1.09
CC(Oc1ccc(Cl)cc1Cl)C(=O)NNC(=O)C(=O)N1CCCC1 (stereo unspecified)	1.41	-0.75
O=C(O)c1csc(-c2ccc(Cl)cc2)n1	0.17	0.91
OCCCCNCc1ccc(OCc2ccccc2)cc1	0.64	-1.42
O=C(NCC(=O)N1CCN(c2ccccc2O)CC1)c1ccccc1	0.03	-0.6
CC(C)(C)NC(=S)NNC(=O)c1ccncc1	1.45	0.32
Cc1ccc(NC(=O)CCSc2nnnn2-c2ccc3c(c2)OCO3)cc1C	0.39	-0.03
CCC(OC(=O)c1nsc(Cl)c1Cl)C(=O)NCc1cccs1 (stereo unspecified)	0.11	0.75
Cc1nc(SC(C)C(=O)c2c(N)n(C)c(=O)n(C)c2=O)c2c(C)c(C)sc2n1 (stereo unspecified)	1.5	1.67
COc1ccc(CNC(=S)Nc2ccc3nc(N4CCOCC4)cc(C)c3c2)cc1	1.94	-0.22
CSc1c(C#N)c(N)nc2sc(C(=O)c3ccc(Cl)c(Cl)c3)c(N)c12	0.1	-0.92
COc1ccc(NC(=O)c2nc(S(=O)(=O)Cc3cccc(C)c3)ncc2Cl)c(OC)c1	0.24	0.68
N=C(N)SCc1ccccc1Cl	0.53	-1.6
O=C(Cc1ccc(Nc2nc3ccc(Br)cc3[nH]2)cc1)NCCc1cccs1	1.14	-1.03
Cc1cc(OCC(=O)Nc2cccnc2)c2c(C)c(C)c(=O)oc2c1	0.08	-2.02
CC(=O)Nc1ccc2c(CSc3nncs3)cc(=O)oc2c1	0.34	-0.29
O=C(NCCS(=O)(=O)N1CCN(c2ccccc2F)CC1)C1CC(=O)N(c2ccc(F)cc2)C1 (stereo unspecified)	0.9	0.16
COC(=O)c1cc(N=CC2=C(O)CC(C)(C)CC2=O)cc(C(=O)OC)c1	0.58	0.24
CC(Sc1nncn1C)C(=O)Nc1ccc(S(N)(=O)=O)cc1 (stereo unspecified)	1	-0.41
Cc1ccc(NC(=O)N[C@@H](CC(C)C)C(=O)O)c(C)c1	0.35	0.95
COc1cc(C2NC(=O)NC(C)=C2C(=O)OCC2CCCCC2)cc(Cl)c1O (stereo unspecified)	2.37	-1.63
O=C(Nc1cccc(O)c1)c1c(O)c2ccccc2[nH]c1=O	0.67	-1.94
COc1ccccc1NC(=O)COC(=O)Cc1ccc(S(=O)(=O)N2CCCCC2)s1	0.65	-1.2
CC(=O)c1ccc(N2CCN(C(=O)c3cccs3)C(C)C2)c(F)c1 (stereo unspecified)	0.56	-0.92
COc1ccc(C(CNC(=O)COc2ccccc2OC)N2CCCCC2)cc1 (stereo unspecified)	0.39	-2.94
Cc1cc(=O)oc2cc(OCCSCCN3CCCCC3)ccc12	0.39	1.94
O=C(CNC(=O)c1ccc(Br)cc1)NCC(=O)OCC(=O)c1ccc([N+](=O)[O-])cc1	0.1	-0.41
CC(C)N(C(=O)CSc1nnnn1C1CCCC1)C(C)C	0.81	-0.64
O=C(COC(=O)CCC(=O)c1cccs1)NCc1ccc(Cl)cc1	0.13	0.54
COc1ccc(C(=O)c2sc3nc(-c4ccccc4)ccc3c2N)cc1OC	0.13	0.41
CCOc1ccc(C(=O)NCC(C)NC(=O)c2ccc(OCC)cc2)cc1 (stereo unspecified)	2.1	-2.09
Cc1cc(C)n2c(SCC(=O)Nc3ncc(C(F)(F)F)cc3Cl)nnc2n1	2.25	-1.91
Fc1ccc(NC(=S)NCc2cccnc2)cc1	1.33	-0.1
Cc1ccc(-n2nc3ccc(NC(=O)c4cccc([N+](=O)[O-])c4C)cc3n2)cc1	1.45	0.22
CCOC(=O)CC(NC(=O)CCc1c(C)nc2nc(C)nn2c1C)c1ccc(C)cc1 (stereo unspecified)	1	-1.89
CCN(CC)c1ncccc1C(=O)NCc1cccs1	1.07	-0.68
O=C1NC(Cc2c[nH]c3ccccc23)C(=O)N1Cc1ccc(CN2C(=O)NC(Cc3c[nH]c4ccccc34)C2=O)cc1 (stereo unspecified)	0.01	-1.77
COC(=O)c1cc(NC(=O)CN2CCOCC2)cc(C(=O)OC)c1	0.81	1.09
CCOc1ccccc1NC(=O)N1CCc2ccccc2C1	0.08	-0.14
Cc1c(C(=O)/C=C/N(C)C)nnn1-c1ccc(Cl)cc1C#N	0.71	-0.37
Cc1ccc(C#N)c(SCC(=O)Nc2nccs2)n1	0.87	0.45
Cc1scc(C(=O)N/N=C/c2ccsc2)c1C	1.72	-0.69
O=C(NCc1ccccn1)c1cc(S(=O)(=O)N2CCN(c3ccccc3)CC2)ccc1Cl	0.03	-1.16
COc1ccc(/C=C/C2=NN(Cc3ccccc3)C(=O)CC2)cc1	0.02	-0.07
COc1ccccc1NC(=O)NNC(=O)CN1C(=O)COc2ccccc21	1.17	1.35
CCOc1ccccc1C(=O)NC(C)c1ccc(-n2ccnc2)cc1 (stereo unspecified)	0.95	-0.96
O=C(CN1CCN(c2ccccc2)CC1)N1CCN(c2ccccc2)CC1	1.34	0.15
CCC(CC)C(=O)Nc1cccc(C(=O)NCc2ccco2)c1	0.11	1.14
CC(C)CC(NC(=O)C(CC(C)C)NC(=O)OC(C)(C)C)C(N)=O (stereo unspecified)	0.02	0.05

(next part)
SMILES	KCNQ2 enhance	KCNQ2 enhance baseline
CCC(C)c1ccccc1N1CC(C(=O)N2CCN(S(=O)(=O)c3ccccc3Br)CC2)CC1=O (stereo unspecified)	0.47	-0.05
O=C(NC(=S)Nc1ccccc1Cl)c1csnn1	14.7*	1.8*
O=C(COc1ccc([N+](=O)[O-])cc1)Nc1ccc2c(c1)nc1n2CCOC1	1.69	1.02
CCC(CC)C(=O)NCc1cccnc1	3.76	-3.43
CCC(=O)Nc1cccc(C2=NOC3(C2)C[C@H](C(N)=O)N(C(=O)c2ccc(Cl)cc2)C3)c1 (stereo partly specified)	1.05	1.47
CN(C)CCCN(C(=O)c1ccc(S(=O)(=O)N2CCCC2)cc1)c1nc2ccc(Br)cc2s1	0.02	-0.04
COc1ccc(NC(=O)CCC(=O)NCCO)cc1	0.56	-0.74
CCOC(=O)C(C)Oc1cccc2c(=O)n(CC(=O)Nc3ccc(OCC)cc3)ccc12 (stereo unspecified)	0.68	-2.28
O=C(Nc1cc2ccccc2oc1=O)c1ccccc1	0.47	1.76
CCC1CCCCN1CCn1c(=S)[nH]c2cc(OC)c(OC)cc2c1=O (stereo unspecified)	0.37	-1.17
Cc1ccc2c(c1)N(CC(=O)NC1CCC(C)CC1)C(=O)CO2 (stereo unspecified)	2.59	-0.84
COc1ccc(NC(=O)CSCC(=O)N(C)CC(=O)Nc2cccc3ccccc23)cc1	0.22	0.46
O=C(CCC1CCCC1)N=C1SC2CS(=O)(=O)CC2N1c1ccccc1F (stereo unspecified)	0.31	-0.07
O=C(Nc1nc(=S)ss1)c1ccc(Cl)cc1Cl	17.1*	0.85*
COc1ccc(NC(=O)c2ccc(NC(=O)c3ccncc3)cc2)cc1	0.05	-0.23
CCc1ccc(/C=C2\Oc3cc(OC(=O)N4CCOCC4)ccc3C2=O)cc1	2.03	-0.53
O=C1CCC([N+](=O)[O-])C(c2cc(Br)ccc2F)N1 (stereo unspecified)	0.77	-0.69
COc1cccc(CN2C(=O)C3(C(C#N)=C(N)OC4=C3C(=O)CCC4)c3ccccc32)c1 (stereo unspecified)	1.5	1.61
O=C(NCCCN1CCOCC1)C1CCN(S(=O)(=O)c2c(Cl)cccc2Cl)CC1	1.86	0.45
CC(Sc1nnc(COc2ccc([N+](=O)[O-])cc2)n1C)C(=O)O (stereo unspecified)	0.81	0.07
CCOc1ccccc1NC(=O)c1ccc2nc[nH]c2c1	0.15	-1.03
CN1C(=O)NC(c2ccc(O)cc2)C(C(=O)c2cccs2)C1(O)C(F)(F)F (stereo unspecified)	1.35	0.89
COc1cc2nc(CN3CCN(S(=O)(=O)c4ccc(Cl)cc4)CC3)[nH]c(=O)c2cc1OC	1.56	-0.03
Cc1cc(C)c2[nH]c(=O)c(CN(Cc3cccnc3)C(=S)NCCCN(C)C)cc2c1	1.16	1.96
O=C(NCC1(O)CCCCC1)C1CCC(=O)N(Cc2ccccc2F)C1 (stereo unspecified)	0.19	-1.2
CCN1CCN(C(=O)c2cnn3c(C(F)F)cc(-c4ccc(C)cc4)nc23)CC1	0.37	1.11
Cc1cc(C)nc(N/N=C/c2ccccc2Cl)n1	0.47	0.03
CC1CCC(NS(=O)(=O)c2ccc3c(c2)n(C)c(=O)c(=O)n3C)CC1 (stereo unspecified)	0.75	-0.76
COc1cc(NC(=O)c2c(F)cccc2F)nc(OC)n1	1.49	-1.8
CC(=O)N(CCc1cccc(C)c1)Cc1cc2ccc(C)cc2[nH]c1=O	0.1	0.1
C=CCN1C(=O)/C(=C2/Sc3ccccc3N2CCCS(=O)(=O)O)SC1=S	0.6	0.17
Cc1ccc(NC(=O)NCc2ccc3c(c2)OCO3)cc1C	2.2	-1.82
O=C(Nc1cccc(C(=O)N2CCOCC2)c1)c1cccnc1	0.96	-0.1
N#Cc1cccc(CN2CCCN(Cc3ccc(F)cc3)S2(=O)=O)c1	0.08	-1.95
CC(=O)N1CCN(C(=S)NC(=O)c2ccc(S(=O)(=O)N3CCOCC3)cc2)CC1	0.2	0.47
Cc1ccc(-c2csc(N3N=C(c4ccccc4)/C(=C\c4ccc(N(C)C)cc4)C3=O)n2)cc1	0.09	-0.93
